# AmpC inh no det – Promiscuous and Specific Inhibitors of AmpC Beta-Lactamase (assay without detergent); P00811; Potency, µM (titrated, usually from 28.7 µM), without a hit: at the highest dose activity change, negative = inhibition; 71,000 tested, 1.8% active; AmpC nitrocefin hydrolysis, absorbance 480 nm, no detergent; potencies from a single point are estimates; active = falling curve, for most hits resting on a single point; inconclusive = weak or doubtful change; inactive = flat or rising curve; further: % of control where 0% means no effect; about half of the hits show no inhibition at the top dose; a quarter of the inactives give rising signals
# Target sequence (P00811 whole entry, looked up): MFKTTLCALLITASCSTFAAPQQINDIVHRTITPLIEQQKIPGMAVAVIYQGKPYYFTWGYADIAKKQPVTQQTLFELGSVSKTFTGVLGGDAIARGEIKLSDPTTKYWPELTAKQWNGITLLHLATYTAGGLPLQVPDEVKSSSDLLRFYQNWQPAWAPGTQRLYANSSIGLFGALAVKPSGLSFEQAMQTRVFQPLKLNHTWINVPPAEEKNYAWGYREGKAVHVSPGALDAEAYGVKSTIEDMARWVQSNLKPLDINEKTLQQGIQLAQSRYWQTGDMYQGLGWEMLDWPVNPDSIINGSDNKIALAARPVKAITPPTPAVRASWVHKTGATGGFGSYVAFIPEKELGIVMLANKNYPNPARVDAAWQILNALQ
#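 AmpC, 20 mM phosphate pH 7.0; 15 min cpd preinc, RT; start with nitrocefin (800 uM stock); A480 kinetic read, 20 s intervals, 4 min. No-enzyme wells = negative control.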
# * marks the source's active call; other numbers are inactive results; ? = inconclusive; [ ] = dose if it differs, or a comment. Potency means the concentration at half of the fitted maximal effect. Not all compounds are listed; the hit share may differ from the screen's.
SMILES,AmpC inh no det
COc1ccc2c(c1)[nH]c1c(=O)n(CCc3cnc[nH]3)cnc12,-2%
COc1ccc(CCNC(=O)C2CCN(S(C)(=O)=O)CC2)cc1OC,4%
O=C(CN1C(=O)c2cccc3cccc1c23)NCC1CCCO1 (centres undefined),4%
CC1(C)CC(=O)N(CC(=O)NCc2ccccc2)c2ccccc2S1(=O)=O,44%
O=C(O)CC1CCC(=C(Cl)Cl)C1 (centres undefined),-3%
Cc1cc(S(=O)(=O)N(C)CCc2ccccc2)ccc1-n1cnnn1,27%
CCOc1cc(-c2ccccc2)nc(N)n1,-17%
Cc1cc(=O)n2nc(N3CCC(C(=O)N4CCN(Cc5ccccc5)CC4)CC3)sc2n1,77%
N#Cc1cccc(-c2ccc3ncnc(NCc4cccs4)c3c2)c1,10%
CCOC(=O)Nc1ccccc1N1C(=O)c2ccccc2C1=O,-7%
CCc1ccc(C(=O)NCC2COc3ccccc3O2)o1 (centres undefined),16%
Cc1nc2ccc(N)cc2c(=O)n1Cc1ccc(Cl)cc1,32%
Cc1cc(CC(C)C)n(-c2nc3ccccc3c(=O)n2OCC(N)=O)n1,22%
COCn1c(-c2cccc(Br)c2)nc2ccccc21,1%
COC(=O)c1ccc(OCCN2C3=NCCN3c3ccccc32)cc1,6%
Cc1cnc(CNc2cc(-c3ccccc3CN(C)C)ncn2)cn1,12%
O=C(c1ccco1)N1CCN(CC2CC3C=CC2C3)CC1 (centres undefined),2%
Cc1ccnc(N(C(=O)c2cccs2)C(=O)c2cccs2)c1,-9%
O=C(Nc1cnc2ccccn2c1=O)c1ccc(F)cc1,-5%
CC(C)c1cc(C(=O)NCc2ccco2)no1,-3%
Cc1ccccc1-c1nc(CS(=O)(=O)CC(=O)N(C)C2CCCCC2)c(C)o1,112%
CCOC(=O)C1CCCN(c2c(NCc3ccco3)c(=O)c2=O)C1 (centres undefined),4µM*[single pt active]
CC(=O)N1CCC(=O)N(C(C)C)c2ccccc21,-3%
CCOC(=O)C(CC)Sc1ncnc2nc[nH]c12 (centres undefined),-3%
Cc1ccc(S(=O)(=O)Cn2nnnc2C(c2ccccn2)N2CCN(c3ccccc3)CC2)cc1 (centres undefined),87%
CN(CC(=O)NC1CCCCC1)S(=O)(=O)c1ccc(Cl)cc1,0%
O=C(O)CCSCc1ccccc1F,-11%
CCCOc1ccc(C(=O)N2CCN(c3ccc(NC(=O)CC)cc3Cl)CC2)cc1,74%
CCCC(=O)Nc1ccc2oc(-c3ccc(OC)c(Br)c3)nc2c1,60%
CN(C)S(=O)(=O)c1cccc(C(=O)OCC(=O)N2c3ccccc3NC(=O)C2(C)C)c1,19%

# In another format: entries from further up.
molecule: O=C(Nc1cnc2ccccn2c1=O)c1ccc(F)cc1
  AmpC inh no det: -5%
molecule: CCOC(=O)C(CC)Sc1ncnc2nc[nH]c12 (centres undefined)
  AmpC inh no det: -3%
molecule: CCCC(=O)Nc1ccc2oc(-c3ccc(OC)c(Br)c3)nc2c1
  AmpC inh no det: 60%
molecule: Cc1cnc(CNc2cc(-c3ccccc3CN(C)C)ncn2)cn1
  AmpC inh no det: 12%

# Carrying on:
SMILES,AmpC inh no det
Cc1ccc(N2C(=O)c3oc4ccccc4c(=O)c3C2c2cccnc2)nc1 (centres undefined),-7%
O=C(Nc1ccc(F)cc1)c1oc2ccccc2c1NC(=O)C1CCCC1,-5%
Cc1ccnc2ccc(-c3nc4ccccc4o3)cc12,164%
CCOC(=O)c1ccc(NC(=O)Nc2ccc3c4c(cccc24)C(=O)N3CC)cc1,46%
COC(=O)C1=C(C)N(C)C(C)=C(C(=O)OC)C1c1ccc(F)c(Br)c1,41%
COc1cc(C(=O)Nc2ccc(-n3cnnn3)c(C)c2)cc(OC)c1OC,20%
O=C(CCSCCc1ccccn1)Nc1ccccn1,-10%
COc1cccc(Cn2c(=O)c(CCc3ccccc3)nc3cnc(N(C)C)nc32)c1,18%
CC(=O)N(CCP(=O)(c1ccccc1)c1ccccc1)Cc1ccco1,28%
CC(=O)Nc1cc(C(=O)N2CCOCC2)ccc1S(=O)(=O)c1ccc(C)cc1,-3%
CCc1nnc(NC(=O)CSc2nnc(-c3ccccc3OC)n2-c2ccccc2)s1,42%
O=C(CSCCO)Nc1cccc2ccccc12,-1%
CC(C)OC(=O)CC(=O)CSc1nc2c(cc1C#N)CCCC2,39%
CCc1nc(NCC2CCCN2CC)c2nnn(Cc3ccccc3F)c2n1 (centres undefined),24%
Oc1ccccc1Oc1ncc(Br)c(N2CCOCC2)n1,17%
O=C(O)COc1ccccc1C1C2C(=O)N(c3ccc(F)cc3)C(=O)C2ON1c1ccccc1 (centres undefined),13%
O=C(Cc1cccs1)NCc1cccs1,-1%
COc1ccccc1CN1CCC2(CC1)CCN(C(=O)c1csnn1)CC2,10%
COCCNC(=O)CN1C(=O)COc2ccc(Cl)cc21,-14%
OCCN1CCN(c2ncnc3ccc(Br)cc23)CC1,4µM*[single pt active]
CC1=C(C(=O)OCc2ccccc2)C(c2ccc(C3CCCCC3)cc2)NC(=O)N1CCCCCC(=O)O (centres undefined),97%
CCn1c(COc2ccccc2C)nnc1SCC(=O)CC(=O)Nc1ccccc1,25%
COC(=O)c1ccccc1NC(=O)N1CCN(C/C=C/c2ccccc2)CC1,85%
COc1ccc(C2CC(O)(C(C)(C)O)NO2)cc1 (centres undefined),10%
COc1ccc(C2(O)CCN(CCCCOc3ccccc3)CC2)cc1,24%
COCCn1c(C(=O)N(C)C)cc2c1C[C@H]1CN(C(=O)c3ccccc3)[C@@](Cc3ccc(F)cc3)(C(=O)OC)[C@@H]21,178%
Cc1cc(-n2c(=O)c(C#N)cc3c(=O)n4cccc(C)c4nc32)no1,-7%
CCC(Sc1nc(=O)cc(N)n1-c1ccccc1)C(=O)Nc1cc(C)on1 (centres undefined),28%
O=C(CN1CCOc2ccccc21)NCc1ccco1,12%
CC(C)n1c(SCC(=O)Nc2ccccc2N2CCCCC2)nc2c1c(=O)n(C)c(=O)n2C,113%
Cc1cc(C)n(Cc2ccccc2Cl)n1,-10%
Cc1cc(NC(=O)CSc2ccc3c(c2)OCCO3)no1,-13%
CC(=O)C1=C(C)NC(SCC(=O)c2ccc(F)cc2)=C(C#N)C1c1ccco1 (centres undefined),-11%
O=C(Nc1cccnc1)c1cccc(S(=O)(=O)N2CCOCC2)c1,-2%
CCOc1ccc(C2CC(c3ccc(Br)cc3)Nc3nc(N)nn32)cc1 (centres undefined),87%
O=C1C=CCCC1,-10%
CCOc1ccc(NC(=O)N2CC=C(n3c(=O)[nH]c4ccccc43)CC2)cc1,38%
COc1cc2cc(CN(C(=O)Nc3ccccc3)C3CCCC3)c(=O)[nH]c2cc1OC,70%
CCOc1nc(C)ccc1-c1noc(-c2ccncc2)n1,31%
C[C@]1(O)CC[C@H]2[C@@H]3[C@@H](O)CC4=CC(=O)CC[C@@]4(C)[C@H]3CC[C@]21C,-4%[5.75 µM]
COCCn1c(=O)[nH]c2cc(C(=O)NCC3CCCO3)ccc2c1=O (centres undefined),-4%
Cc1ccccc1-c1nc(-n2ccnc2)c2ccccc2n1,26%
CCCCOc1ccc(CN2CCC(O)CC2)cc1,3%
CCN(CC)S(=O)(=O)c1ccccc1/C=N\O,6%
O=C(CN1C(=O)COc2ccccc21)N1CCN(c2ccccc2F)CC1,17%
O=C(NCc1ccccc1Cl)C1CCCN(S(=O)(=O)c2cnc[nH]2)C1 (centres undefined),-8%
CCOC(=O)CSc1n[nH]c(-c2ccco2)n1,-8%
COC(=O)C(O)(c1cn(C)c2ccccc12)C(F)(F)F (centres undefined),6%
Cc1onc(-c2c(F)cccc2Cl)c1C(=O)Nc1nnc(C2CC2)s1,-20%
Cc1ccc(C)n1NC(=O)c1ccccc1Cl,12%
COc1ccc(-n2c(Cc3cc(=O)[nH]c(=O)[nH]3)nnc2SCc2ccccc2)cc1,4µM*[single pt active]
Cc1nnc(NC(=O)Nc2cccc(Cl)c2)s1,?
Cc1nn(C(=O)c2cccnc2)c(C)c1C,3%
COC(=O)c1cn(C(=O)OC)c2ccccc12,14%
CCCCn1c(=O)c(C(=O)OCC)c(O)c2ccccc21,-16%
COc1ccc(OCC(O)Cn2c(Br)nc3c2c(=O)[nH]c(=O)n3C)cc1 (centres undefined),12%
COc1ccc(NC(=O)C2CC(=O)N(c3cccc(C)c3C)C2)cc1 (centres undefined),24%
CN(C)c1ccc(P(=O)(OCc2ccccc2)C(O)c2cccnc2)cc1 (centres undefined),40%
COC(=O)c1sc(NC(=O)c2ccoc2C)nc1C,-9%
CC(C)(Oc1ccc(-c2cccc3ccccc23)cc1)C(=O)O,10%[5.75 µM]

# 3 structures already listed, sorted by formula weight, lowest first:
SMILES,AmpC inh no det
Cc1ccc(C)n1NC(=O)c1ccccc1Cl,12%
CCCCn1c(=O)c(C(=O)OCC)c(O)c2ccccc21,-16%
CC(C)(Oc1ccc(-c2cccc3ccccc23)cc1)C(=O)O,10%[5.75 µM]

# Back to the main list; the three compounds before the break are reprinted first.
SMILES,AmpC inh no det
CN(C)c1ccc(P(=O)(OCc2ccccc2)C(O)c2cccnc2)cc1 (centres undefined),40%
COC(=O)c1sc(NC(=O)c2ccoc2C)nc1C,-9%
CC(C)(Oc1ccc(-c2cccc3ccccc23)cc1)C(=O)O,10%[5.75 µM]
CCNc1ncc2nc(CCc3ccccc3)c(=O)n(Cc3ccc(F)cc3)c2n1,-2%
C=CCn1c(N)c(C(=O)NCC2CCCO2)c2nc3ccccc3nc21 (centres undefined),111%
CCOC(=O)c1[nH]c2c(c1C)C(=O)CC(c1ccc(F)cc1)C2 (centres undefined),-5%
Cc1nn(-c2ccccc2)c2[nH]c(=O)c(CNCCN3CCOCC3)cc12,-16%
CCc1ccc(NS(=O)(=O)c2cc(OC)ccc2OC)cc1,-5%
O=S(NCc1ccco1)C12CC3CC(CC(C3)C1)C2 (centres undefined),17%
C(CCOCC1CO1)COCC1CO1 (centres undefined),-6%
O=C(NCC(=O)N(CC1CCCO1)C(C(=O)NC1CCCCC1)c1ccc(F)cc1)c1ccco1 (centres undefined),55%
COc1ccccc1CNC(=O)CCCn1c(=O)c2ccccc2n(CC(=O)NC2CCCC2)c1=O,39%
Cc1ccc(S(=O)(=O)Cc2csc(N)n2)cc1,-1%
COc1ccc(-c2nc(CSCC(=O)N3CCc4ccccc43)c(C)o2)cc1OC,129%
O=C(C1CCCCC1)N1CCC(c2nc3c(nnn3Cc3c(F)cccc3Cl)c(=O)[nH]2)CC1,89%
CCn1nc(CC(=O)Nc2nnc(CC(=O)N3CCCC3)s2)c2ccccc2c1=O,-1%
CC1CCCCC1NC(=O)CSc1nc2ccccc2c(=O)n1Cc1ccco1 (centres undefined),-4%
COc1ccc(-n2c(SCC(=O)NCc3cccs3)nnc2-c2ccoc2C)cc1,1%
CCCOC(=O)c1cccc(NC(=O)c2cccnc2)c1,-3%
O=C1C(Cl)=C(NC2CCc3ccccc32)C(=O)c2ncccc21 (centres undefined),49%
OC1(c2cccnc2)CC2CCC(C1)N2Cc1nnnn1Cc1ccccc1 (centres undefined),11%
CCOC(=O)c1c(NS(C)(=O)=O)sc2c1CCC(C)C2 (centres undefined),18%
Cn1c(=O)cc(OCC(=O)NCCCN2CCN(c3cccc(Cl)c3)CC2)c2ccccc21,127%
O=c1cc(-c2ccncc2)oc2ccccc12,6%
COc1ccc2c(c1)c1ncn(Cc3ccco3)c(=O)c1n2C,102%
CCCCn1nnnc1NCc1cc(OC)c(OC)c(OC)c1,2%
COc1cc(OC)cc(C(=O)NCC(=O)N2CCCCC2)c1,-1%
Cc1cc(C(=O)CSCCCn2c(=O)[nH]c3ccccc32)c(C)n1C,61%
O=C(C1CC1)N1CCc2cc(S(=O)(=O)NC3CCN(Cc4ccccc4)CC3)ccc21,60%
CCn1c(-c2ccc(N(C)C)cc2)nc2ccccc21,-11%
CCOc1ccc(C2N(c3ccc(F)cc3)C(=O)C3CCCN32)cc1 (centres undefined),27%
CSc1cccc(NC(=O)CN(c2ccc(C)cc2C)S(C)(=O)=O)c1,11%
CC(=O)c1c(C)nc2nonc2c1N,1%
COc1cccc(-c2cc(C(=O)N3CCCCCC3)no2)c1,44%
Cn1c(O)c(/C=N/c2ccccn2)c(=O)n(C)c1=O,7%
COC(=O)CCC(=O)Nc1cccc(Cl)c1,4%
CCCn1c(SCC(=O)NCc2ccco2)nnc1C(C)C,53%
COc1ccccc1NC(=O)CN1CCC(n2c(C)nc3cc(F)ccc32)CC1,96%
COc1ccccc1NC(=O)CC1C(=O)NCCN1C(=O)Nc1ccc(Cl)c(Cl)c1 (centres undefined),104%
CC(=O)NC12CC3CC(C1)CC(C(=O)OCC(=O)Nc1ncc(Cl)c(C)c1Cl)(C3)C2,40%
Fc1cccc(-c2cc3nc4c(c(N5CCOCC5)n3n2)CCCC4)c1,100%
CC(C)C1=C2CCCCC2NC(=O)N1 (centres undefined),-8%
CCOC(=O)C1CCCN(c2c(NCCCN3CCCC(C)C3)c(=O)c2=O)C1 (centres undefined),4µM*[single pt active]
CN(C(=O)CN1CCC(NC(=O)C2CCCCC2)CC1)C1CCCCC1,2%
CC(C)Oc1ccc(C2NC(=O)NC2=O)cc1 (centres undefined),1%
CC1=C(C(=O)OC(C)C)C(C)C(C(=O)OC(C)C)=C(C)N1,69%
CC(C)C(=O)Nc1nnn(C)n1,-5%
c1ccc(Cn2nnnc2C(c2cccs2)N2CCCCCC2)cc1 (centres undefined),10%
